MbtI inh: MbtI salicylate synthase inhibitors, primary screen, biochemical, fluorescence intensity; purified MbtI enzyme, fluorescence intensity read-out; AID 493033, 2011; inhibition, %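 (about 17 µg/mL by stock and volumes)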; 100,000 compounds, 0.89% hits; P9WFX0;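 active = above 50% in both replicates, above 80% if mildly self-fluorescent; inactive = the rest, strongly fluorescent compounds included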;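 note: 0% = mean of negative and 100% = mean of positive controls; one replicate is shown; some compounds called inactive have numbers as strong as hits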
Target sequence (P9WFX0 whole entry, looked up): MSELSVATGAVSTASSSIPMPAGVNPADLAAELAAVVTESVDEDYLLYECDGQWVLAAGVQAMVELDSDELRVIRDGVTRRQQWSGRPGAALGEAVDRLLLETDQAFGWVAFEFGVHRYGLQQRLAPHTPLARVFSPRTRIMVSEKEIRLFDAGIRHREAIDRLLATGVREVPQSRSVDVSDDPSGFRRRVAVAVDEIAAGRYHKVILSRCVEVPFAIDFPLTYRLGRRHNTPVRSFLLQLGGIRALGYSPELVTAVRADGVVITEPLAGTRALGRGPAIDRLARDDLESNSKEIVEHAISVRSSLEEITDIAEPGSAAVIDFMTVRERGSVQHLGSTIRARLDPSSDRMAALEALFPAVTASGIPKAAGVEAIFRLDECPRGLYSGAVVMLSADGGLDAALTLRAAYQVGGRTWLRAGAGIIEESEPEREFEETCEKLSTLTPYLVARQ
MenB inh: M. tuberculosis MenB inhibitors, primary screen, biochemical, absorbance | 1,4-dihydroxy-2-naphthoyl-CoA synthase (Mycobacterium tuberculosis (strain ATCC 25618 / … | MenB enzyme assay, absorbance read-out; some hits fall short of the stated cut | inhibition, %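 (about 12 µg/mL by stock and volumes)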 | 100,000 compounds, 0.43% hits | AID 540299, 2011;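 active = mean of two replicates above 30%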;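 note: 0% = no compound and 100% = wells with inactive enzyme; the first replicate is given; strong numbers were not always called active; inactives centre near -10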
Polio RdRp inh: poliovirus RdRp elongation inhibitors, primary screen, biochemical, fluorescence polarization, total intensity; Genome polyprotein (Poliovirus type 1 (strain Mahoney)), P03300; poliovirus polymerase elongation; active compounds read low; % elongation, % (compound at 16.7 µg/mL); 150,000 compounds, 0.66% hits; in the data active = % elongation below about 90%; note: some results filed as inactive read as strong as hits
Target sequence (P03300 1749-2209 limits assumed): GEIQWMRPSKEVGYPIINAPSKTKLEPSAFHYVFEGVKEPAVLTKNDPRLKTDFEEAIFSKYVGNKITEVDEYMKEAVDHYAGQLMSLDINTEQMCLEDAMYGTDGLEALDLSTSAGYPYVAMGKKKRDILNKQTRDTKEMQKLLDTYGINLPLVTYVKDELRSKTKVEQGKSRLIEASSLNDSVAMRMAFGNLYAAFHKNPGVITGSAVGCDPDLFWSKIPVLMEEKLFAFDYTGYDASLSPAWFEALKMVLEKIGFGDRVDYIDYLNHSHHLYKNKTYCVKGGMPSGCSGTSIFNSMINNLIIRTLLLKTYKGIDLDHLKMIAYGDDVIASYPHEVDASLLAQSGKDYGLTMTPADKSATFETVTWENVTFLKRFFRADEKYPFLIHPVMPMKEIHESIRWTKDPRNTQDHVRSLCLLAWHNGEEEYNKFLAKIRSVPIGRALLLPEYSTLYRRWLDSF
Polio RdRp inh intensity: also measured in Polio RdRp inh; calls as there; % elongation; measured here: total intensity read-out; formula for this scale not given here;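 total fluorescence in place of polarization; lower means less elongation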
* = called active by the depositor; i = inactive; x = not tested or not shown; & = joins results of further samples.

SMILES | MbtI inh | MenB inh | Polio RdRp inh | Polio RdRp inh intensity
COc1cc(C(=O)NC2CCCc3ccccc32)ccc1OCc1c(C)noc1C (configuration not stated) | -5 | -22 | 100 | 108
O=C(NC12CC3CC(CC(C3)C1)C2)c1ccccc1Cl | -8 | x | 101 | 93
O=C1CN(S(=O)(=O)c2ccc3[nH]c(=O)ccc3c2)CC(=O)N1CCc1ccccc1 | 3 | -23 | 104 | 109
CC1(C)CC2(CCCN(C(=S)Nc3ccccc3)C2)CCO1 (configuration not stated) | -13 | -18 | 99 | 99
O=C(CSC1=NCCS1)Nc1ccccc1Cl | 51 | -25 | 101 | 98
CCN(CC)S(=O)(=O)c1ccc(C(=O)Nc2ccc(-n3nncc3-c3ccccc3)cc2)cc1 | 5 | -81 | 103 | 104
COc1ccc(CNC(=O)c2cnc3ccccn3c2=O)cc1 | 0 | -20 | 104 | 101
N/C(Cc1nc2ccccc2[nH]1)=N\O | -3 | 44* | 106 | 114
CC1CN(CCC(=O)NN)CC(C)O1 (configuration not stated) | -4 | -26 | 103 | 98
C=CCOCC(O)Cn1c(N)nc2c1c(=O)n(C)c(=O)n2C (configuration not stated) | -2 | 24 | 102 | 103
C=CCSc1n[nH]c(=O)n1C1CCCCC1 | 22 | -5 | 102 | 100
CC1CCCCN1C(=O)Cc1ccc(Cl)cc1 (configuration not stated) | x | -6 | 109 | 111
O=C(COCc1cc(-c2ccc(F)cc2)on1)Nc1ccc(F)cc1F | 1 | -22 | 104 | 107
CC(=O)NS(=O)(=O)c1ccc(NC(=O)c2cn3ccccc3n2)cc1 | 6 | -27 | 102 | 98
CC(OC(=O)c1ccccc1F)C(=O)N1CCc2ccccc21 (configuration not stated) | -36 | -18 | 99 | 99
Cc1ccc(C(=O)OCC(=O)NCC2CCCO2)c(C)c1 (configuration not stated) | 0 | x | 103 | 105
CC(=O)O/N=C(\N)c1ccc(N2CCN(c3ncccc3C(F)(F)F)CC2)nc1 | -42 | -23 | 103 | 104
Oc1ccc(-c2cnc3ccccc3n2)cc1 | -126 | -25 | 99 | 100
Nc1ccc(S(=O)(=O)NCc2ccco2)cc1 | 25 | -6 | 101 | 100
O=C1N=c2ccccc2=C1c1sc(N2CCOCC2)nc1O | -8 | -25 | 101 | 99
COc1ccc(OCC(=O)Nn2cnnc2)cc1 | -16 | 6 | 99 | 103
CC1CCCCN1S(=O)(=O)c1ccc(C(=O)Nc2nc3ccc4ccccc4c3s2)cc1 (configuration not stated) | -4 | -15 | 104 | 105
O=C(Cn1ncn2nc(-c3cccs3)cc2c1=O)NCCCN1CCCCCC1 | 92 | 4 | 104 | 103
CC(=O)Nc1ccc(S(=O)(=O)N[C@@H](C)C(=O)N2CCN(C/C=C/c3ccccc3)CC2)cc1 | 3 | 8 | 107 | 109
CC1CCCCC1NC(=O)C1CCCN(c2nnc(-n3cccc3)s2)C1 (configuration not stated) | 1 | -10 | 100 | 101
COc1ccc(N(C(=O)Cn2nnc3ccccc32)C(C(=O)NCC2CCCO2)c2sccc2C)cc1 (configuration not stated) | -2 | -7 | 101 | 101
Cc1ccc(NC(=O)CS(=O)CC(=O)Nc2ccc3c(c2)CCC3)cc1 (configuration not stated) | -8 | 16 | 102 | 104
Cc1cc(N2CCN(C)CC2)nc2ccc(NC(=S)N3CCCCC3)cc12 | -27 | -12 | 103 | 105
COc1ccc(OCc2nc3ccccc3n2C)cc1 | -2 | 11 | 104 | 103
COc1ccc(C=Nc2nc3ccccc3nc2N2CCCC2)cc1 | -6 | -2 | 135 | 157

2 compounds from above, showing only MenB inh and Polio RdRp inh:
SMILES	MenB inh	Polio RdRp inh
O=C(Cn1ncn2nc(-c3cccs3)cc2c1=O)NCCCN1CCCCCC1	4	104
CC(=O)Nc1ccc(S(=O)(=O)N[C@@H](C)C(=O)N2CCN(C/C=C/c3ccccc3)CC2)cc1	8	107

Following part:
SMILES | MbtI inh | MenB inh | Polio RdRp inh | Polio RdRp inh intensity
CC(C)n1ncc2c1N=C(c1ccco1)N(C)C2c1ccccc1 (configuration not stated) | 9 | -6 | 98 | 102
Cc1ccc(CN(C)C(=O)c2cccc(S(=O)(=O)N(C)C)c2)o1 | 14 | -33 | 107 | 111
Cc1cc(NC(=O)CSc2nc3nccnc3c(=O)n2Cc2ccco2)n[nH]1 | 2 | -8 | 103 | 102
O=C(CCc1ccccc1)OCc1nnc(-c2ccc(Br)cc2)o1 | 0 | -37 | 110 | 106
CCN(Cc1ccncc1)Cn1nc(C(=O)O)c2ccccc21 | -16 | 4 | 105 | 107
CC(C)C(NC(=O)OCc1ccccc1)C(=O)O (configuration not stated) | -7 | x | 100 | 93
O=C(CSc1ccccc1)N1c2ccccc2Sc2ccccc21 | -5 | -14 | 83* | 89*
O=C(CCC(=O)c1ccc(Br)cc1)Nc1cccnc1 | -2 | -9 | 101 | 102
CCOc1ccc2c(c1)C(C)=CC(C)(C)N2C(=O)CSc1nnc(C2CC2)n1C | -8 | -20 | 105 | 108
Cc1ccc(C)c(OCc2nnc(SCC(=O)NC(=O)NCc3ccco3)o2)c1 | 19 | -16 | 103 | 102
Cc1ccc(N(C)C(=O)N2CCN(c3ccccn3)CC2)cc1 | 12 | -6 | 103 | 106
c1ccc(N=P(c2nc3ccccc3o2)(N2CCOCC2)N2CCOCC2)cc1 | -9 | -19 | 104 | 107
Cc1ccc(NC(=O)c2oc3ccccc3c2NC(=O)c2ccccc2)cc1 | 2 | -11 | 101 | 103
CC(=O)N1CCN(C2CCSC2)CC1 (configuration not stated) | -11 | -32 | 98 | 104
CNS(=O)(=O)c1ccc(NC(=O)c2ccc(C)o2)cc1 | 8 | -3 | 102 | 103
O=C(Nc1cccc(C(F)(F)F)c1)C(NCCN1CCOCC1)c1ccccc1 (configuration not stated) | -12 | -6 | 103 | 103
CCCn1c(CNC(=O)c2cc(OC)c(OC)c(OC)c2)nc2ccccc21 | 8 | -6 | 101 | 105
Cc1c(C(=O)OCc2nc(-c3cccc(Cl)c3)no2)sc2nc3n(c(=O)c12)CCC3 | -1 | -20 | 104 | 101
COc1ccccc1NC(=O)c1ccc(NC(=O)CSc2nnc(C)n2N)cc1 | 31 | -19 | 102 | 106
O=C(O)CCC1(CCC(=O)O)CCCCC1=O | -13 | 27 | 101 | 102
COc1ccc2c(c1)CC/C(=C/c1ccc(N3CCOCC3)cc1)C2=O | -2 | -11 | 104 | 111
COc1cc(OC)cc(C(=O)N(C)Cc2ccccc2C)c1 | -10 | -10 | 106 | 109
CC(=O)Nc1ccc(-c2nc3ccccc3o2)cc1 | x | 0 | 106 | 98
CCN(CC)CCN(C)C1CCC(c2ccccc2)CC1 (configuration not stated) | -10 | -20 | 101 | 102
CCOC(=O)c1c(C)oc2nc(COC(=O)c3cc(-c4ccc(Cl)cc4)nc4ccccc34)nc(N)c12 | -10 | -23 | 105 | 110
c1cc2c(cc1C1CCCCC1)c1c3n2CCN=C3CCC1 | -86 | 3 | 101 | 104
CC(C)CCNC(=O)c1cccc(Cl)c1 | x | 1 | 107 | 113
CCCCn1c(SCC(=O)OCC)nc2c(sc(=S)n2CCc2ccccc2)c1=O | -40 | -9 | 105 | 108
O=C(O)c1ccc2[nH]c(=O)c(=O)[nH]c2c1 | x | 2&7 | 102&99 | 106&97
CCCC(=O)Nc1cc(C)c(NC(=O)C23CC4CC(CC(C4)C2)C3)cn1 | -5 | -20 | 101 | 104
CC(C)CC1(C)OCC(C[N+]2(C)CCCCC2)O1 (configuration not stated) | -176 | -23 | 100 | 99
O=C(NCCc1ccccn1)C1CCN(C(=O)c2ccc(F)cc2)CC1 | -16 | -3 | 106 | 111
CCn1c(C)cs/c1=N\C(=S)Nc1ccccc1C | 11 | -17 | 101 | 102
FC(F)(F)C1(C(F)(F)F)N=C(c2ccccc2)OC(N2CCCCC2)=N1 | -12 | -14 | 102 | 108
Cc1oc2nc[nH]c(=O)c2c1C(=O)NCc1ccccc1 | -14 | -4 | 140 | 178
Clc1ccc(Sc2c(-c3ccccc3)nc3ncccn23)cc1 | i | -60 | 106 | 103
O=C(C1CCN(c2nnc(-n3cccc3)s2)CC1)N1CCCCC1 | 1 | -9 | 102 | 106
CC1(C)Cc2c(cnn2-c2ccccc2)C(=O)/C1=N\NC(=O)c1ccncc1 | -2 | -12 | 103 | 102
CC(C)CC(NC(=O)C1CCCCC1)C(=O)N1CCN(c2ccccc2F)CC1 (configuration not stated) | -7 | -4 | 101 | 98
O=C(CSc1nnc(-c2ccccc2O)o1)Oc1ccc(OCc2ccccc2)cc1 | 0 | 22 | 103 | 103
NCc1ccc(Cl)cc1 | -1 | 9 | 101 | 100
Cc1ccc(-c2cc(C(=O)N3CCCN(C)CC3)c3ccccc3n2)cc1 | 13 | x | 101 | 105
COc1cccc(N(CC(=O)Nc2ccc(C)cc2)S(C)(=O)=O)c1 | -12 | -35 | 103 | 101
Cc1ccc(-c2cc(-c3ccco3)c(C#N)c(SCC(=O)Nc3ccc(Cl)c(Cl)c3)n2)cc1 | 6 | -14 | 102 | 109
CCOc1ncccc1C(=O)Nc1cccc(C(=O)Nc2cccc(S(=O)(=O)CCO)c2)c1 | 17 | 6 | 100 | 99
CCOC(=O)C1CCN(C(=O)c2ccc(OCC)cc2)CC1 | -7 | -23 | 106 | 102
CCOC(=O)/C(N=Nc1c(C)n(C)n(-c2ccccc2)c1=O)=C(/O)c1ccccc1 | 5 | -114 | 108 | 105
COc1cc(C2C3=C(CCCC3=O)OC3=C2C(=O)CCC3)cc(Br)c1O | 11 | 8 | 99 | 99
CCOc1ccc2nc(SC(C)C(N)=O)[nH]c2c1 (configuration not stated) | 25 | -10 | 105 | 111
CCC(=O)NC(C)Cc1c[nH]c2ccccc12 (configuration not stated) | -9 | -15 | 106 | 108

Next structures.
SMILES | MbtI inh | MenB inh | Polio RdRp inh | Polio RdRp inh intensity
COc1ccc(OC)c(C(=O)COc2ccccc2C#N)c1 | x | -1 | 104 | 114
CCNc1ccc2c(Cl)cc(=O)oc2c1 | -282 | -38 | 98 | 105
COn1c(=O)c(-c2cccc(C(F)(F)F)c2)[n+]([O-])c2ccccc21 | -6 | -10 | 103 | 102
Oc1ccc(CNc2ccccc2Cl)c2cccnc12 | 4 | -35 | 103 | 102
NC(=S)NC1CC2C=CC1C2 (configuration not stated) | 0 | -18 | 106 | 99
O=C(NC1CC1)c1sccc1-c1ccccc1 | 105 | -28 | 108 | 114
CC(C)CCNC(=O)c1cc2oc3ccccc3c2n1C | 87 | -42 | 101 | 100
O=C(CCC(=O)c1ccccc1)Nc1ccccc1F | 7 | 9 | 100 | 98
COc1ccc(/C=C/C(=O)OC2CCOC2=O)cc1OC (configuration not stated) | 42 | -26 | 107 | 103
O=C(COc1ccc(-n2cnnn2)cc1)NCC(F)(F)F | -11 | -3 | 101 | 99
CC(C)Nc1nc(-c2ccccc2O)nc2ccccc12 | -16 | x | 103 | 104
COc1ccc(C(=O)Cn2ccnc2C(=O)N2CCN(c3ccccn3)CC2)cc1 | -3 | -26 | 105 | 105
CSc1nc(/N=C/N(C)C)n2nc(-c3ccccc3)cc2n1 | -10 | -19 | 107 | 116
CC(=O)NC(C)c1nc(-c2ccccc2)no1 (configuration not stated) | -1 | -3 | 102 | 104
CCC1CCC2(CC1)NC(CO)(CO)CO2 (configuration not stated) | -4 | 14 | 100 | 102
CC(C)c1ccc(N(C(=O)c2ccccc2)C2C=CS(=O)(=O)C2)cc1 (configuration not stated) | -4 | -8 | 99 | 99
O=C1/C(=C/c2ccc3c(c2)OCCO3)COc2ccccc21 | 3 | -9 | 99 | 105
O=C1NC(=O)C(CCc2ccncc2)(c2ccccc2)C(=O)N1 | -10 | 31 | 101 | 104
Cc1ccc(C)c(N2CCN(c3cc4c(nn3)Oc3ccccc3N4C)CC2)c1 | -1 | -28 | 103 | 101
Cc1cc(C)n(-c2ccc(C(=O)OCCN3C(=O)c4ccccc4C3=O)cc2)n1 | 16 | 5 | 101 | 100
O=C1CC(c2ccccc2)N=C(SCC(=O)NC2CCCCC2)N1 (configuration not stated) | -19 | -22 | 101 | 102
COc1ccc(CN2CCSCC2)cc1Br | 2 | -23 | 100 | 102

By substructure: the entries above with a Cl atom (eleven)
SMILES | MbtI inh | MenB inh | Polio RdRp inh | Polio RdRp inh intensity
O=C(NC12CC3CC(CC(C3)C1)C2)c1ccccc1Cl | -8 | x | 101 | 93
O=C(CSC1=NCCS1)Nc1ccccc1Cl | 51 | -25 | 101 | 98
CC1CCCCN1C(=O)Cc1ccc(Cl)cc1 (configuration not stated) | x | -6 | 109 | 111
Cc1c(C(=O)OCc2nc(-c3cccc(Cl)c3)no2)sc2nc3n(c(=O)c12)CCC3 | -1 | -20 | 104 | 101
CCOC(=O)c1c(C)oc2nc(COC(=O)c3cc(-c4ccc(Cl)cc4)nc4ccccc34)nc(N)c12 | -10 | -23 | 105 | 110
CC(C)CCNC(=O)c1cccc(Cl)c1 | x | 1 | 107 | 113
Clc1ccc(Sc2c(-c3ccccc3)nc3ncccn23)cc1 | i | -60 | 106 | 103
NCc1ccc(Cl)cc1 | -1 | 9 | 101 | 100
Cc1ccc(-c2cc(-c3ccco3)c(C#N)c(SCC(=O)Nc3ccc(Cl)c(Cl)c3)n2)cc1 | 6 | -14 | 102 | 109
CCNc1ccc2c(Cl)cc(=O)oc2c1 | -282 | -38 | 98 | 105
Oc1ccc(CNc2ccccc2Cl)c2cccnc12 | 4 | -35 | 103 | 102

Assay outcomes from PubChem BioAssay.
